AID504770 = E. coli YBA685 growth inhibition, screen for V. cholerae RctB inhibitors; E. coli YBA685 rctB-dependent plasmid, OD600 growth, 3 h; active compounds read low; z-score (concentration not given with the values); actives 0.27% (n = 130,000);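 active = z-score under -2 on both plates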;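 note: wells of about 30 µL received 100 nL stock; score is relative to mean and SD of the test wells; the first replicate is given; strong numbers were not always called active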
CapD inh = blocks the Bacillus anthracis CapD enzyme; purified CapD enzyme, fluorescence intensity read-out; active compounds read low; some hits fall short of the stated cut; z-score (concentration not given with the values); actives 0.23% (n = 140,000); AID 492967;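 active = z-score under -4 in either of two replicates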;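 note: stock transfer was 100 nL into about 40 µL; score is relative to mean and spread of the plate; one replicate is shown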
Active calls of the source: *; nt = no result given; & = joins results of further samples.

Second line of a record – AID504770, CapD inh
- COc1ccc(N2CCc3c(C)c(C#N)c4nc5ccccc5n4c32)cc1
    -0.45, 0.04
- CCc1ccccc1NC(=O)c1ccc(S(=O)(=O)N(C)C)cc1
    -0.85, -0.1
- N#CC(C#N)=NNc1ccc2c(c1)OCCO2
    -0.3, nt
- O=C(NNC(=S)Nc1cccc(C(F)(F)F)c1)c1ccncc1
    nt, -1.1
- O=C1C2C(C(=O)N1C1CCCCC1)C1C=CC2C12CC2 (stereo not drawn)
    -0.5, -0.37
- COc1ccc(CNS(=O)(=O)c2ccc3c(c2)CCN3C(=O)C2CC2)cc1
    1.5, -0.38
- CC1CCc2onc(C(=O)N3CCCc4ccccc43)c2C1 (stereo not drawn)
    0.75, -0.48
- CS(=O)(=O)N(CCc1ccccc1)CC(=O)O
    -0.1, nt
- CC1=C(C(=O)Nc2ccccc2)C(c2ccc(OC(=O)c3ccccc3)cc2)n2nnnc2N1 (stereo not drawn)
    nt, 0.17
- O=C(O)c1ccccc1SCC(=O)N1CCc2ccccc21
    0.2, nt
- N#CCCC(C#N)(CCC#N)C(N)=O
    nt, -1.1
- C=CCn1c(CNC(=O)c2ccc(OC)cc2)nnc1SCc1nc2ccccc2c(=O)[nH]1
    0.9, 0.41
- Cc1cc2nc(/C=C/c3ccccc3)n(Cc3ccc(Cl)cc3)c2cc1C
    nt, 40
- Cc1ccc(/C=C/C(=O)OCC(=O)/C=C2\N(C)c3ccccc3C2(C)C)o1
    -0.4, nt
- O=C(NCc1ccccc1)C1CCCN(c2cnccn2)C1 (stereo not drawn)
    1.8, 7.7
- CN(C)C=NC(=O)C(c1ccccc1)c1ncc(C(F)(F)F)cc1Cl (stereo not drawn)
    nt, -0.075
- CSc1nc(C)nc(N)n1
    nt, 0.81
- O=C(On1c(-c2ccccc2)nc2ccccc2c1=O)c1ccco1
    nt, 0.17
- O=C(C1CC1)N1c2ccccc2CCc2ccccc21
    -0.95, 0.83
- COC(=O)c1sccc1NC(=O)c1ccc2ncccc2c1
    -0.7, 0
- CCC1CCC2(CC1)SCC(=O)N2c1ccccc1 (stereo not drawn)
    -0.5, 0.29
- O=c1oc2ccccc2cc1Cl
    -0.7, 11
- COC(=O)C1(S(=O)(=O)C2(C(=O)OC)CCCC2)CCCC1
    3, nt
- CN1C=C(c2ccc3ccccc3n2)C(C[N+](=O)[O-])c2ccccc21 (stereo not drawn)
    nt, 4.9
- O=c1c2cnn(-c3ccc(Cl)cc3)c2ncn1Cc1ccc(Cl)cc1
    0.35, 1.4
- CSc1ccc(S(=O)(=O)NC(C)C)cc1
    -0.15, 0.72
- CCCCN(CCCC)C(=O)c1cc(C(=O)c2ccc(C(C)(C)C)cc2)c[nH]1
    nt, -0.51
- CCOc1ccc(-n2nnc(C(=O)NCCN3CCOCC3)c2C)cc1
    0.25, 0.98
- O=C(NCC(c1ccco1)N1CCCCC1)c1ccc(S(=O)(=O)N2CCCC2)cc1 (stereo not drawn)
    -1.2, nt
- CCC(=O)N1CCc2cc(Br)cc(S(=O)(=O)Nc3noc4ccccc34)c21
    -1.5, -1.4

Additional results.
Second line of a record – AID504770, CapD inh
- CC(C)CN(CC(C)C)Cn1c(=O)oc2ccccc21
    0.25, 11
- O=C(/C=C/c1cccs1)OCc1nc2ccccc2s1
    -0.4, nt
- CCCCC(CC)c1nnc(N)s1 (stereo not drawn)
    -0.2, 0.18
- COc1ccccc1C(N)=S
    -0.95, nt
- Oc1oc(-c2ccccc2)nc1C1=NCCC1
    0.15, nt
- CSCCC(=O)N1CCN(S(=O)(=O)c2ccc(C)cc2)CC1
    -0.7, nt
- CC(=O)Nc1ccc(OCC(O)CN2CCN(C(c3ccccc3)c3ccccc3)CC2)cc1 (stereo not drawn)
    -0.3, nt
- CC(=O)Nc1cccc(F)c1C(=O)O
    nt, -0.13
- O=C(CC1=NS(=O)(=O)c2ccccc2N1)NC1CCCC1
    0.5, -0.94
- Cn1c(=O)c2nc3ccc(NC(=O)Nc4ccccc4)cc3nc2n(C)c1=O
    2.9, -1.4
- Cc1cc2occ(CC(=O)OC(C)C(=O)NC3(C#N)CCCCC3)c2cc1C (stereo not drawn)
    -0.4, nt
- CCOC(=O)Cn1c(O)c(N=NC(=O)c2cccc(F)c2)c2ccccc21
    -1.2, -0.14
- CN(C)[C@@H]1C(=O)C(C(N)=O)=C(O)[C@@]2(O)C(=O)C3=C(O)c4c(O)ccc(Cl)c4[C@@](C)(O)[C@H]3C[C@@H]12
    -3.6*, 0.99&-0.18
- CCOC(=O)c1c(C)n(C)c2c1cc(OC(=O)COc1ccccc1C)c1ccccc12
    nt, 0.13
- CC(NC(=O)Cc1ccccc1)C(=O)O (stereo not drawn)
    -0.6, 0.085
- CN(C(=O)CSc1cc(Cl)ccc1Cl)c1ccc(F)cc1F
    1.4, 0.77
- CCCN1C(=O)C(O)(C2COC(C)(C)CC2=O)c2cc(C)ccc21 (stereo not drawn)
    -0.7, nt
- Cc1ccc(-n2nnc(C(=O)NC(C)C)c2C)cc1
    0.4, nt
- NC(=O)CSc1nnc(COc2ccccc2)n1C1CCCCC1
    -0.25, nt
- COc1ccc(/C=C2/C(=N)N3OC(C)=CC3=NC2=O)cc1
    1.4, -0.76
- CCOC(=O)c1ccc(N2CCOCC2)c(N)c1
    nt, 1.8
- S=c1n(CN2CCOCC2)nc(Cc2cccs2)n1C1CCCCC1
    -0.45, nt
- COc1ccccc1NC(=O)C1=C(C)NC(=S)NC1C (stereo not drawn)
    0, nt
- c1ccc2c(c1)CCN2c1ncnc2nc[nH]c12
    -0.15, -0.39
- O=C(/C=C/c1ccco1)c1ccc2c(c1)C1C=CCC1C(c1ccc(Cl)cc1)N2 (stereo not drawn)
    nt, -0.025
- O=C(O)CNC(=O)c1cccnc1Oc1ccccc1
    -0.35, 0.21
- CCOC(=O)c1cc(-c2ccccc2)n(CC(=O)N2CCN(c3cc(Cl)ccc3C)CC2)c1C
    0.35, 0.02
- CC1(C)N([O-])C2=C(CCCC2)[N+]1=O
    -0.4, nt
- CC1=C(C(=O)Nc2nc3ccccc3s2)C(c2cccc(Br)c2)C2=C(CCCC2=O)N1 (stereo not drawn)
    nt, 26
- CCOC(=O)CCCCCOC(=O)NC(Cc1c[nH]c2ccccc12)C(=O)OCc1ccccc1 (stereo not drawn)
    nt, -0.36

Of the compounds above, these contain an aryl methoxy group.
Second line of a record – AID504770, CapD inh
- COc1ccc(N2CCc3c(C)c(C#N)c4nc5ccccc5n4c32)cc1
    -0.45, 0.04
- COc1ccc(CNS(=O)(=O)c2ccc3c(c2)CCN3C(=O)C2CC2)cc1
    1.5, -0.38
- C=CCn1c(CNC(=O)c2ccc(OC)cc2)nnc1SCc1nc2ccccc2c(=O)[nH]1
    0.9, 0.41
- COc1ccccc1C(N)=S
    -0.95, nt
- COc1ccc(/C=C2/C(=N)N3OC(C)=CC3=NC2=O)cc1
    1.4, -0.76
- COc1ccccc1NC(=O)C1=C(C)NC(=S)NC1C (stereo not drawn)
    0, nt

Remaining list, next part.
Second line of a record – AID504770, CapD inh
- c1csc(-c2nnc3n2-c2ccccc2SC3)c1
    -1.5, -0.5
- CCN(CC)C(=O)C1=C(C)Nc2nnnn2C1c1cccnc1 (stereo not drawn)
    -0.35, 0.38
- O=C(NCc1cccnc1)C1CCCCN1S(=O)(=O)c1ccc(F)cc1 (stereo not drawn)
    -1.1, -0.45
- Cc1c(NC(=O)COC(=O)c2ccc(S(=O)(=O)N3CCCC3)cc2)c(=O)n(-c2ccccc2)n1C
    1.4, nt
- O=C(Nc1nc2ccc(F)cc2s1)c1ccccc1Br
    -0.25, -0.24
- COC(=O)Nc1ccc(S(=O)(=O)C(F)F)cc1
    -0.95, 0.39
- COc1ccc(C(C)=O)cc1CSc1nc2cc(C(=O)N3CCC(C(N)=O)CC3)ccc2c2nc3ccccc3n12
    nt, 0.53
- O=c1ccc(-c2ccc(S(=O)(=O)NCCCc3ccco3)s2)n[nH]1
    0.5, 2
- CCOC(=O)CSc1nc(SCC(=O)OCC)c2c3c(sc2n1)CCC3
    0.15, 0.16
- CCOC(=O)c1[nH]c(C)c(C(=O)N2CCN(c3ccccc3)CC2)c1CC
    2.4, -1.2
- CC(=O)NC1C(OCc2ccccc2)OC(COC(C)=O)C(OC(C)=O)C1OC(C)=O (stereo not drawn)
    nt, -0.29
- CCCCCc1ccc(/C=N/NC(=O)c2ccc([N+](=O)[O-])o2)cc1
    nt, -1
- Cc1noc(N2C(=O)C3C4C=CC(C4)C3C2=O)c1C (stereo not drawn)
    -0.1, -0.31
- N=C1S/C(=C\c2ccc(-c3cccc(C(=O)O)c3)o2)C(=O)N1c1ccc2c(c1)OCO2
    nt, 1.5
- CC1(C)N=C(NC(=O)NC(=O)c2ccccc2Cl)N(c2ccccc2)O1
    -0.25, 0.2
- Cn1/c(=N/N=C2\C(=O)Nc3ccc(F)cc32)sc2ccccc21
    0.1, nt
- Cc1cccc(Oc2coc3cc(OC(=O)c4cncc(Br)c4)ccc3c2=O)c1
    nt, -0.21
- CC(NCc1nc2ccccc2n1C)C12CC3CC(CC(C3)C1)C2 (stereo not drawn)
    0.55, -0.74
- CC(=O)N1CN2CN(C1)CN(C(C)=O)C2
    0.55, 0.075
- CCN(CC)P1(=O)OC(C)(C)CC1(C)O (stereo not drawn)
    -0.1, -0.43
- CCOc1ccc(CCNC(=O)CC2Oc3ccccc3NC2=O)cc1 (stereo not drawn)
    -0.6, 0.15
- CCCC1=Nc2cc(C(=O)NC)ccc2Sc2ccccc21
    0.65, -0.61
- CC(c1ccccc1)n1cnc2c(cnn2-c2ccc(F)cc2)c1=O (stereo not drawn)
    0.35, nt
- CNC(=O)NC(=O)C(C)N1CCN(C/C=C/c2ccccc2)CC1 (stereo not drawn)
    -1.1, nt
- Cc1c(O)ccc(-c2[nH]ncc2-c2nc3ccccc3s2)c1O
    0.25, -0.09
- O=C(/C(=N/O)c1nc2ccccc2s1)c1ccco1
    2.2, -0.2
- Cn1/c(=N/N=C(\CCC(=O)O)c2cccs2)sc2ccccc21
    1, nt
- CCC(C)NC(=O)CN1CCN(Cc2ccc(Cl)cc2)C1=O (stereo not drawn)
    -0.5, -2.2
- O=C(CN1CCc2ccccc21)Nc1nnc(-c2cccs2)s1
    1.3, 1.1
- COc1cc(C=C2C(=O)NC(=O)NC2=O)ccc1OCc1ccccc1[N+](=O)[O-]
    nt, -0.35

Part of the list above, as tab-separated lines:
Compound	AID504770	CapD inh
CCCCCc1ccc(/C=N/NC(=O)c2ccc([N+](=O)[O-])o2)cc1	nt	-1
Cc1noc(N2C(=O)C3C4C=CC(C4)C3C2=O)c1C (stereo not drawn)	-0.1	-0.31
N=C1S/C(=C\c2ccc(-c3cccc(C(=O)O)c3)o2)C(=O)N1c1ccc2c(c1)OCO2	nt	1.5
CC1(C)N=C(NC(=O)NC(=O)c2ccccc2Cl)N(c2ccccc2)O1	-0.25	0.2

Carrying on.
Second line of a record – AID504770, CapD inh
- COc1cccc(N2C(=O)CC(N3CCC(C(N)=O)(N4CCCCC4)CC3)C2=O)c1 (stereo not drawn)
    1, nt
- Clc1ccc(-c2ccc(Cl)cc2)cc1
    0.1, 0.65
- COc1cccc(CN(C)C(=O)c2ccccc2Cl)c1OC
    -1.3, nt
- Cc1cc(C)c(S(=O)(=O)N2CCSC2)cc1C
    0.6, -0.18
- NC(=S)NNC(=O)c1ccccc1Cl
    nt, 0.65
- CC1CCN(C(=O)C2C3C=CC(C3)C2C(=O)O)CC1 (stereo not drawn)
    1, -2
- O=C(Nc1ccccc1)N(Cc1ccco1)C1CCS(=O)(=O)C1 (stereo not drawn)
    2.3, -0.63
- CN(C)c1ccc(CNCc2ccccc2)cc1
    -1.1, nt
- S=c1nc[nH]c2c1nnn2Cc1ccccc1
    1.3, -0.99
- CC(C)(C)c1cc(C(=O)NCc2cccs2)cc(C(=O)NCc2cccs2)c1
    0.35, 0.32
- O=c1/c(=C\c2cc(Br)ccc2OCc2ccccc2)sc2nc3ccccc3n12
    nt, -0.51
- Cc1ccc(S(=O)(=O)NC(C)(C)CSc2ncccn2)cc1
    -0.65, -0.37
- FC(F)(F)c1ccc(-c2noc(-c3ccno3)n2)cc1
    1.1, 0.29
- Brc1ccc(Nc2nc3nonc3nc2N2CCN(Cc3ccccc3)CC2)cc1
    nt, 0.75

Reprinted from above (7 entries):
Second line of a record – AID504770, CapD inh
- CN(C)c1ccc(CNCc2ccccc2)cc1
    -1.1, nt
- S=c1nc[nH]c2c1nnn2Cc1ccccc1
    1.3, -0.99
- CC(C)(C)c1cc(C(=O)NCc2cccs2)cc(C(=O)NCc2cccs2)c1
    0.35, 0.32
- O=c1/c(=C\c2cc(Br)ccc2OCc2ccccc2)sc2nc3ccccc3n12
    nt, -0.51
- Cc1ccc(S(=O)(=O)NC(C)(C)CSc2ncccn2)cc1
    -0.65, -0.37
- FC(F)(F)c1ccc(-c2noc(-c3ccno3)n2)cc1
    1.1, 0.29
- Brc1ccc(Nc2nc3nonc3nc2N2CCN(Cc3ccccc3)CC2)cc1
    nt, 0.75

Assay outcomes deposited in PubChem by ICCB-Longwood Screening Facility, Harvard Medical School.
